Methyltransferases – Primary Screen for Target Class Profiling of Small Molecule Inhibitors of Methyltransferases; calls only at 40 µM; 25,000 tested, 3.9% active; purified enzyme, MTase-Glo SAH luminescence; hits give low values; AID 1745853, 2022; active = -50% or lower on at least one of six enzymes; inconclusive = the cases between; inactive = as a rule above -30% on all six;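 note: enzymes were COMT GAMT GNMT HNMT NNMT and PNMT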
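Each enzyme was assayed with SAM and its substrate. SAH formation detected by MTase-Glo luminescence; single-point 40 uM screen[…].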
Calls only; i = inactive; ? = inconclusive; + = active, no number. % is set by controls: 0 for no effect and ±100 for the full control effect. The list is partial, so the mix of outcomes need not match the whole.

Preview, 4 compounds:
SMILES | Methyltransferases
Cc1cc2c(cc3n2CC(C)(C(=O)NC2CCCCCC2)N(c2cccc(C)c2C)C3=O)o1 (stereo not drawn) | i
Cc1ccc(CNC(=O)N2CCCCCNC(=O)[C@@H]3CCC[C@@H]32)cc1 | i
CCOc1ccc(CN2C(=O)c3ccc(-c4ccco4)n3CC2(C)C(=O)NCCC(C)C)cc1 (stereo not drawn) | i
C=C(C(=O)O)[C@@H]1CC[C@@]2(C)CCC[C@@](C)(O)[C@@H]2C1 | i

This part in full (from the top)
SMILES | Methyltransferases
Cc1cc2c(cc3n2CC(C)(C(=O)NC2CCCCCC2)N(c2cccc(C)c2C)C3=O)o1 (stereo not drawn) | i
Cc1ccc(CNC(=O)N2CCCCCNC(=O)[C@@H]3CCC[C@@H]32)cc1 | i
CCOc1ccc(CN2C(=O)c3ccc(-c4ccco4)n3CC2(C)C(=O)NCCC(C)C)cc1 (stereo not drawn) | i
C=C(C(=O)O)[C@@H]1CC[C@@]2(C)CCC[C@@](C)(O)[C@@H]2C1 | i
O=C(CCc1conc1-c1ccc(F)cc1)NC1CCCCC1 | i
O=C(c1noc2c1CCCC2)N1CCOc2ccc(CN3CCN(c4ccccn4)CC3)cc2C1 | i
CC(O)CN1CC2(CCC1=O)CCN(C(=O)c1ccnn1C)CC2 (stereo not drawn) | i
COC(=O)[C@H](CC1CCCCC1)NC(=O)[C@@H]1CN(C(=O)c2ccc(N(C)C)cc2)CCN1C(C)=O | i
COc1ccccc1CNC(=O)C1(C)Cn2cnc(C(=O)NC3CCCC3)c2C(=O)N1C1CC1 (stereo not drawn) | i
C[C@@H]1C[C@@H]([C@@H](O)C(C)(C)O)O[C@H]2C[C@@]3(C)C(=C12)C[C@H](O)[C@H]1[C@@]2(C)CCC(=O)C(C)(C)C2CC[C@@]13C (stereo partly drawn) | i
COc1cc([C@@H]2Nc3c(Cl)cccc3[C@@H]3C=CC[C@@H]32)cc(Br)c1OC | i
CC(=O)O[C@@H]1CC(C)=C2[C@H]1[C@H](C)CC[C@H]2/C=C(\C)C(=O)O | i
COC(=O)c1ncn2c1C(=O)N(Cc1ccccc1OC)C(C)(C(=O)NC1CCCCC1)C2 (stereo not drawn) | i
CCN1C(=O)Cc2ccccc2C1C(=O)N(C)Cc1ccco1 (stereo not drawn) | i
COc1ccc(OC)c2c1cc1n2CC(C)(C(=O)NC2CCCC2)N(Cc2ccc(C)cc2)C1=O (stereo not drawn) | i
CC1(C)CC[C@]2(C(=O)O)CC[C@]3(C)C(=CCC4[C@@]5(C)C[C@@H](O)[C@H](O)[C@@](C)(CO)C5CC[C@]43C)[C@@H]2[C@@H]1O (stereo partly drawn) | ?
COc1ccc(N(C(=O)c2ccco2)S(=O)(=O)c2ccc3c(c2)n(C)c(=O)n3C)cc1 | i
C=C[C@@]1(C)CC(=O)C2[C@](C)(O1)[C@@H](OC(C)=O)[C@@H](O)[C@H]1C(C)(C)CCC[C@]21C (stereo partly drawn) | i
O=S(=O)(c1ccccc1)N1CCC(Cc2ccc(CN3CCOCC3)cc2)CC1 | i
CCOc1ccc(NS(=O)(=O)c2ccc3[nH]c4c(c3c2)CCCC4)cc1 | i
COC(=O)c1sccc1S(=O)(=O)N1CCN2C(=O)CN(C)C(=O)C2C1 (stereo not drawn) | i
CC(C)CCn1c(=O)c2ccccc2n2c(CCC(=O)N3CCN(Cc4ccccc4)CC3)nnc12 | ?
COC(=O)c1cc2n(n1)CCCN(C(=O)c1cc(C)nc3ccc(C)cc13)C2 | i
CCn1c(=O)n(CC)c2cc(S(=O)(=O)Nc3ccc(C)c(Cl)c3)ccc21 | i
COC(=O)c1ncn2c1C(=O)N(Cc1ccccc1Br)C(C)(C(=O)NC1CCCC1)C2 (stereo not drawn) | i
O=S(=O)(c1cccc(-c2nc(-c3ccccc3)no2)c1)N1CCN(c2ccc(Cl)cc2)CC1 | i
O=C(C1CCC(=O)N(C2CCCC2)C1)N1CCN(c2nccs2)CC1 (stereo not drawn) | i
CCOC(=O)c1cc2n(n1)CC(C)(C(=O)NCCC(C)C)N(c1cccc(Cl)c1C)C2=O (stereo not drawn) | i
COc1ccc(CCNC(=O)CCc2nnc3n(CCc4ccccc4)c(=O)c4ccccc4n23)cc1OC | i
O=C(O)CCc1ccc(NCc2cccc3c2CCCN3CCOc2ccccc2)cc1F | +
COc1ccc(-c2cc3c(cn2)CN(CCc2ccccc2)CCN3)cc1OC | +
O=C(CCc1nnc2n(CCc3ccccc3)c(=O)c3ccccc3n12)N1CCC(N2CCCCC2)CC1 | +
CC1(C(=O)NC2CCCC2)Cn2cnc(C(=O)NCc3cccc(Cl)c3)c2C(=O)N1C1CC1 (stereo not drawn) | i
COc1ccc(OC)c(CCN2C(=O)c3cc4oc(C)cc4n3CC2(C)C(=O)NC2CCCCC2)c1 (stereo not drawn) | i
Cc1cccc(CSc2nnc3n(CC(C)C)c(=O)c4ccc(C(=O)NC(C)C)cc4n23)c1 | i
COc1ccc(CC(=O)Nc2ccc3ncnc(N4CCCC4)c3c2)c(Cl)c1 | +
CC(NC(=O)c1ccc2c(=O)nc3c(-c4cccc(F)c4)n[nH]n3c2c1)c1ccc(F)cc1 (stereo not drawn) | ?
CC(C)CCn1c(=O)c2ccc(C(=O)NCC(C)C)cc2n2c(=O)n(Cc3c(F)cccc3Cl)nc12 | i
Cc1ccc(C)c(N2C(=O)c3cc(C(C)(C)C)nn3CC2(C)C(=O)NCc2ccccc2)c1 (stereo not drawn) | i
CC(C)CCn1c(=O)c2ccc(C(=O)NC(C)C)cc2n2c(=O)n(CC(=O)c3ccc(F)cc3F)nc12 | i

Reprinted from the part before: 4 entries, then new ones.
SMILES | Methyltransferases
CC(NC(=O)c1ccc2c(=O)nc3c(-c4cccc(F)c4)n[nH]n3c2c1)c1ccc(F)cc1 (stereo not drawn) | ?
CC(C)CCn1c(=O)c2ccc(C(=O)NCC(C)C)cc2n2c(=O)n(Cc3c(F)cccc3Cl)nc12 | i
Cc1ccc(C)c(N2C(=O)c3cc(C(C)(C)C)nn3CC2(C)C(=O)NCc2ccccc2)c1 (stereo not drawn) | i
CC(C)CCn1c(=O)c2ccc(C(=O)NC(C)C)cc2n2c(=O)n(CC(=O)c3ccc(F)cc3F)nc12 | i
CC(C)CCN1C(=O)c2ccccc2CC1(C)C(=O)NCc1ccc(Cl)cc1 (stereo not drawn) | i
O=S(=O)(c1ccccc1)N1CCCC(Cc2noc(-c3ccncc3)n2)C1 (stereo not drawn) | i
CCOC(=O)c1ccc2c(c1)C1C=CCC1C(c1ccccc1F)N2 (stereo not drawn) | i
O=C(NCCc1cccs1)c1nnc(-c2ccc(S(=O)(=O)N3CCCC3)cc2)o1 | i
CCOC(=O)c1cc2n(n1)CC(C)(C(=O)NC1CCCCC1)N(c1cccc(Cl)c1)C2=O (stereo not drawn) | i
O=C1CCC2(CNC(=O)c3cc(F)ccc3F)CCC=C2N1 (stereo not drawn) | i
Cc1cc(C)n(-c2cccc(CN3CCCC(O)(CN(C)C)C3)c2)n1 (stereo not drawn) | i
CC(C)CCNC(=O)C1(C)Cn2nc(C(=O)NCCN3CCCCC3)cc2C(=O)N1C (stereo not drawn) | i
C=CC[C@H](N)C(=O)O | i
COC[C@H]1C[C@@H](NS(C)(=O)=O)[C@H](O)[C@@H]1O | i
CO[C@H]1O[C@@H]2O[C@@]3(C)CCC4[C@H](C)CCC([C@H]1C)[C@]42OO3 (stereo partly drawn) | ?
COc1ccc2cc3n(c2c1)CC(C)(C(=O)NC1CCCCCC1)N(CCN1CCN(C)CC1)C3=O (stereo not drawn) | i
Nc1nc2c(c(=O)[nH]1)CCN(C(=O)Cc1c[nH]c3ccccc13)C2 | i
C=C1CC2C(C)(CCC(=O)O)C(C(C)(C)O)CCC2(C)C2C(=O)OC(C)(C(=O)OC)C(=O)C12C (stereo not drawn) | i
COc1cccc(CN2C(=O)c3cc4occc4n3CC2(C)C(=O)NC2CCC(C)CC2)c1OC (stereo not drawn) | i
CC(C)n1cc(-c2ccc(Oc3ccccc3)cc2)c2c(N)ncnc21 | +
CNC(=O)[C@H]1O[C@@H](n2cnc3c(NCc4ccc(N)c(I)c4)ncnc32)[C@H](O)[C@@H]1O | i
CC(=O)CC1CCC(C(C)C(=O)OCC(O)CO)O1 (stereo not drawn) | i
O=C(Cn1nc2n(Cc3ccccc3)c(=O)c3ccccc3n2c1=O)c1ccc(Br)cc1 | i
FC(F)(F)c1ccnc(N2CC[C@H](c3nnc(-c4ccncc4)o3)C2)n1 | +

Part of the list above, as comma-separated lines.
Compound,Methyltransferases
C=C1CC2C(C)(CCC(=O)O)C(C(C)(C)O)CCC2(C)C2C(=O)OC(C)(C(=O)OC)C(=O)C12C (stereo not drawn),i
COc1cccc(CN2C(=O)c3cc4occc4n3CC2(C)C(=O)NC2CCC(C)CC2)c1OC (stereo not drawn),i
CC(C)n1cc(-c2ccc(Oc3ccccc3)cc2)c2c(N)ncnc21,+
CNC(=O)[C@H]1O[C@@H](n2cnc3c(NCc4ccc(N)c(I)c4)ncnc32)[C@H](O)[C@@H]1O,i
CC(=O)CC1CCC(C(C)C(=O)OCC(O)CO)O1 (stereo not drawn),i
O=C(Cn1nc2n(Cc3ccccc3)c(=O)c3ccccc3n2c1=O)c1ccc(Br)cc1,i
FC(F)(F)c1ccnc(N2CC[C@H](c3nnc(-c4ccncc4)o3)C2)n1,+

The listing continues.
SMILES | Methyltransferases
CCC(c1cnn(C)c1)n1ccnc1-c1cc(F)c(OC)c(Cl)c1 (stereo not drawn) | i
O=c1c2cc(-c3cccs3)nn2ccn1CC(O)c1cccc(Cl)c1 (stereo not drawn) | i
C=C(C(=O)O)[C@@H]1CC[C@H](C)[C@@H]2CC(=O)C(C)=C2C1 | +
COc1cccc(CN2C(=O)c3cc4ccccc4n3CC2(C)C(=O)NC2CCCCCC2)c1 (stereo not drawn) | i
CC(C)NC(=O)Cn1nc2n(Cc3ccccc3)c(=O)c3ccc(C(=O)NC(C)C)cc3n2c1=O | i
O=C(c1ccc(Cl)cc1)N1CCC2(CC1)CC(c1ccccc1)=NO2 | i
CCOC(=O)C1CCN(c2nc3c(S(=O)(=O)c4ccc(Br)cc4)nnn3c3ccccc23)CC1 | i
Cc1cc(N2CCOCC2)cc2[nH]c(-c3c(NC[C@@H](O)c4cccc(Cl)c4)cc[nH]c3=O)nc12 | i
COc1cccc(-c2cc(C(=O)NCc3c(C)cc(C)[nH]c3=O)c3c(c2)N(C(C)C)CCO3)c1OC | ?
COc1cc(NC(=O)Nc2cccc(CNC(=O)O[C@H]3CCOC3)c2)ccc1-c1cnco1 | +
CCCCNc1nc2c(S(=O)(=O)c3ccc(C(C)C)cc3)nnn2c2ccccc12 | i
COc1ccc(CCN2C(=O)c3nc4ccccc4n3CC2(C)C(=O)NC2CCCCC2)cc1OC (stereo not drawn) | i
C[C@@H]1O[C@@H](O[C@H]2[C@H](O)[C@@H](O[C@@H]3O[C@H](CO)[C@H](O)[C@H](O)[C@H]3O)[C@H](O[C@H]3CC[C@@]4(C)C(CC[C@]5(C)C4CC=C4[C@@H]6CC(C)(C)CC[C@]6(C(=O)O[C@@H]6O[C@H](CO)[C@@H](O)[C@H](O)[C@H]6O)CC[C@]45C)C3(C)C)O[C@@H]2C(=O)O)[C@H](O)[C@H](O)[C@H]1O (stereo partly drawn) | i
COC(=O)C1=CO[C@@H](O[C@@H]2O[C@H](CO)[C@@H](O)[C@H](O)[C@H]2O)[C@@H]2[C@@H](C)[C@@H](O)C(O)[C@H]12 (stereo partly drawn) | i
O=C(c1ccc(F)cc1)N1CCC[C@H](c2nc(-c3ccc(F)cc3)no2)C1 | ?
CC(C)[C@@](O)(c1ccc2cc(OC(F)F)c(OC(F)F)cc2c1)c1cn[nH]n1 | i
CCc1cc2c(cc3n2CC(C)(C(=O)NC2CCCCC2)N(Cc2ccccc2F)C3=O)s1 (stereo not drawn) | i
COc1cc(CCc2ccccc2)c(C(=O)O)c2c1CC(C(C)(C)O)O2 (stereo not drawn) | i
COc1cc(C(=O)OC[C@H]2O[C@@H](OC(C)(C)C(=O)O)[C@H](O)[C@@H](O)[C@@H]2O)cc(OC)c1O | i
CC(C)CN[C@H]1CO[C@H]2[C@@H]1OC[C@@H]2Nc1nccc(-c2cccs2)n1 | i
O=C(NCc1ccc(Cl)cc1)c1c[nH]c2ncccc12 | i
Cc1cccc(NC(=O)N2CCn3cccc3C2Cc2ccccc2)c1C (stereo not drawn) | i
CC(C)CCn1c(=O)c2ccc(C(=O)NC3CCCCC3)cc2n2c(=O)n(Cc3ccc(F)cc3)nc12 | i
CC(C)C1c2cccn2CCN1C(=O)Nc1ccccc1 (stereo not drawn) | i
CC(C)c1cc2n(n1)CC(C)(C(=O)NC1CCCCCC1)N(c1ccc(Cl)cc1)C2=O (stereo not drawn) | i
O=C(Cn1ncc2c1-c1ccccc1OC2)N1CCN(c2ccccc2)CC1 | ?
CC1(C(=O)NC2CCCCCC2)Cn2c(cc3occc32)C(=O)N1Cc1cccc(Cl)c1 (stereo not drawn) | i
COc1ccccc1CCNC(=O)c1cc2n(n1)CC(C)(C(=O)NCc1ccc(F)cc1)N(C)C2=O (stereo not drawn) | i
C[C@]12CC[C@H](O)CC1=CCC1C2CC[C@]2(C)C(n3cnc4ccccc43)=CCC12 (stereo partly drawn) | ?
CCCCNC(=O)CCc1nnc2n(Cc3ccccc3Cl)c(=O)c3ccccc3n12 | i
Cn1cc(C2=C(c3c4n(c5ccccc35)CCC(CN)C4)C(=O)NC2=O)c2ccccc21 (stereo not drawn) | ?
Cc1cccc(NC(=O)N2Cc3c(sc4c3CCCC4)-n3cccc3C2c2cc(F)cc(F)c2)c1 (stereo not drawn) | i
CC1(C(=O)NC2CCCCCCC2)Cn2c(ccc2-c2ccco2)C(=O)N1CCc1ccco1 (stereo not drawn) | i
CO[C@H](C)[C@H](N)C(=O)N1CCC(c2cc(Cc3ccccc3)[nH]n2)CC1 | i
COc1ccc(Cn2c(=O)c3ccccc3n3c(-c4cc(Br)cs4)nnc23)cc1 | i
COCCS(=O)(=O)c1ncc(CN(C)C(C)c2ccon2)n1Cc1ccccc1 (stereo not drawn) | i
Cc1nsc(NC(=O)NCc2ccccc2OC(F)(F)F)n1 | i
O=c1[nH]c2ccc(S(=O)(=O)Nc3ccccc3)cc2[nH]1 | i

Source: PubChem BioAssay
